Assay outcomes as filed in PubChem BioAssay.
GLA inh pH 4.5 = alpha-galactosidase A (human) inhibition, pH 4.5. P06280. purified enzyme, 4-MU-alpha-Gal fluorescence, pH 4.5. activity change, negative = inhibition, % at 105 µM. 230,000 tested, under 10 active. AID 1467; inconclusive = small, poorly fitted or top-dose-only inhibition, or a rising curve; inactive = flat fitted curve, though single readings scatter; no compound was filed as active;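 also: 0% = full activity with enzyme and -100% = basal without enzyme; dose as in the result columns while the protocol names 77 µM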
Rango release inh = prevents RanGTP from dissociating the Rango-importin beta complex; O95149+P62826; Biochemical FRET Rango-importin beta, RanGTP-induced dissociation; Potency, µM (top dose mostly 46.1 µM), for inactives: top-dose activity change, negative = inhibition; hit rate 0.071% among 340,000; active means falling FRET ratio curve, often poorly fitted, with flat reads before Ran was added; inconclusive means other falling curves, or compound fluorescence or quenching; inactive means flat or rising ratio curve;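 also: potency is read from the fitted curve at half-maximal effect; % of control where 0% means no effect; nearly all actives have a fitted effect of over 45% in size; -100% = wells without RanGTP and RCC1; the record marks most hits as doubtful in a second field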
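Recombinant Rango FRET biosensor (EYFP–snurportin 1 IBB–cerulean CFP10) at 0.1 uM premixed with 0.25 uM importin beta in PBS, 1 mM DTT, 0.02% Tween-20, 0.1% BSA. Compound added 5 min; RanGTP-RCC1 (0.6 uM Ran, 2 mM GTP, 0.2 uM RCC1) then triggers release, read at 45 min.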
Rango complex inh = inhibitors of Rango-importin beta complex formation; Rango CFP/YFP FRET sensor + importin beta, 45 min; AID 540263; hit rate 0.031% among 340,000; Q14974; Potency, µM (top dose mostly 92.2 µM), without a hit: at the top dose inhibition of complex formation; active = rising FRET ratio curve, often small or poorly fitted; inconclusive = mostly compound fluorescence or quenching in the first reads; inactive = flat curves in all reads;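 also: potency is read from the fitted curve at half-maximal effect; 0% = DMSO wells and 100% = buffer wells lacking importin beta; nearly all actives have a fitted effect of over 15% in size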
Target sequence (Q14974 whole entry, looked up): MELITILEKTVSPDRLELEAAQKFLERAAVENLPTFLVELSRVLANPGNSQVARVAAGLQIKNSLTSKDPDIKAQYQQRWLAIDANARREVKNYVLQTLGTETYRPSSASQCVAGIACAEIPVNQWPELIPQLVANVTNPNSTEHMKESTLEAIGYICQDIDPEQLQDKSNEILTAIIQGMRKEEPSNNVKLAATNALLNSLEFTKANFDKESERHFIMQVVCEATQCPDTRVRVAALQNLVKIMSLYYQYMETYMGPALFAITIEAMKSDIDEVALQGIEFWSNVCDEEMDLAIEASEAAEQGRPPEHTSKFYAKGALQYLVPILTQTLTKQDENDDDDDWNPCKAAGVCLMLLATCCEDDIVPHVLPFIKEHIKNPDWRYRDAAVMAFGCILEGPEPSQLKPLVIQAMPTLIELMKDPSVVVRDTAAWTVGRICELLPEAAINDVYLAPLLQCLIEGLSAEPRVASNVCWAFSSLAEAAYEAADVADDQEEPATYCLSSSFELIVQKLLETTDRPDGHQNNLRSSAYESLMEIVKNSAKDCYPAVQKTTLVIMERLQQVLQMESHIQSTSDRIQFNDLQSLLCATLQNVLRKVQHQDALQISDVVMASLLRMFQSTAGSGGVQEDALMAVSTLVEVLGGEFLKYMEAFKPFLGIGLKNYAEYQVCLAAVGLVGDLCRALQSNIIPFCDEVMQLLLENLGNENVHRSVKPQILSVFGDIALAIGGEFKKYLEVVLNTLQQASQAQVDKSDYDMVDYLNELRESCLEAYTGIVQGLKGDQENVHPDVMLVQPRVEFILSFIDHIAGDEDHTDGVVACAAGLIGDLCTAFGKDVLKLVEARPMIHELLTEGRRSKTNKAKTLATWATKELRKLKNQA
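Inhibition scored from the CFP 486 nm/YFP 530 nm FRET ratio 45 min after adding 0.125 microM importin beta to 50 nM Rango biosensor preincubated 5 min with compound (room temperature, PBS with DTT, Tween-20, BSA). No-importin wells as positive control.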
miR-21 FLuc = raises the signal of a miR-21 reporter. HeLa miR-21 FLuc reporter, luciferase, 48 h. Potency, µM (highest dose often 38.3 µM), for inactives: top-dose reporter change, positive = more light. 340,000 tested, under 10 active; active = well fitted rising curve with a large enough effect; inconclusive = small, poorly fitted or top-dose-only effect; inactive = no such curve, though single readings can be large or run the other way;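 also: % of control where 0% means no effect; miR-21 action dims this reporter so a rising signal means less miR-21 action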
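HeLa cells stably expressing CMV-driven firefly luciferase with a downstream miR-21 binding sequence, endogenously expressing miR-21, were treated with titrations (up to about 40uM final) for 48 hours at 37 degree Celsius. Luciferase luminescence was read after lysis.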
Active calls of the source: *; ? = inconclusive; . = no result given. This is a subset (hit frequency here may not be typical).

SMILES	GLA inh pH 4.5	Rango release inh	Rango complex inh	miR-21 FLuc
CN(C(=O)c1cn2ccccc2n1)c1c(N)n(Cc2ccccc2)c(=O)[nH]c1=O	.	-12%	-0.3%	.
O=C(OCc1cc(=O)n2cc(Br)ccc2n1)c1ccc(Cl)c(S(=O)(=O)NCc2ccccc2)c1	-3	-13%	-0.1%	-2%
CCCCc1ccc(-n2nnnc2SCC(=O)Nc2cc(OC)c([N+](=O)[O-])cc2C)cc1	10	-6%	-2.0%	-2%
O=[N+]([O-])c1ccc(Cl)c(S(=O)(=O)NC2=NCCC2)c1	.	3%	2.1%	.
Cc1cccc(OCC(=O)N(Cc2ccco2)C2CCS(=O)(=O)C2)c1C (stereo not given)	.	10%	0.6%	-7%
Nc1ccc(N2CCCCC2)c(Cl)c1	-2	2%	-0.4%	1%
COc1cc(CC(=O)N(C)CC(=O)Nc2ccc(Cl)c(C(F)(F)F)c2)cc(OC)c1OC	.	2%	-1.5%	6%
O=C(c1ccc(=O)n(Cc2ccccc2)n1)N1CCN(C/C=C/c2ccccc2)CC1	-1	-15%	-0.1%	23%
Cc1cccc(Oc2ncnc3oc(-c4ccccc4)cc23)c1C	-7	1%	-2.6%	-3%
Cc1ccc(Nc2nc(CSc3nnc(-c4ccccc4C)n3C)cs2)cc1	-9	1%	4.1%	-5%
CCOc1ccc2c(c1)OC(c1ccccc1)(C(F)(F)F)NC2=O (stereo not given)	-2	12%	-3.9%	-2%
CCc1cc2c(=O)n(Cc3ccco3)c(SCC(=O)N(C)C3CCS(=O)(=O)C3)nc2s1 (stereo not given)	5	9%	-2.3%	2%
O=C(NCc1ccccc1)C1Cc2ccccc2CN1C(=O)c1ccco1 (stereo not given)	-8	-2%	0.0%	4%
CCN(CC)CCCNC(=O)CCn1nc(-c2ccc(Cl)cc2)ccc1=O	.	-8%	0.1%	1%
CCOC(=O)n1c(O)c(N=NC(N)=S)c2cc(C)ccc21	4	0%	0.0%	3%
Cn1nnnc1Sc1ncnc2scc(-c3ccc([N+](=O)[O-])cc3)c12	.	-12%	2.3%	.
O=C(CN(C(=O)CCC(=O)Nc1ccccn1)c1cccc(F)c1)NCc1ccco1	.	4%	-0.4%	1%
C=C1c2cc3c(cc2NC(=S)N1Cc1ccccc1)OCO3	3	-9%	?	1%
O=C(c1ccccc1)N1CCN(C(=S)NCc2ccco2)CC1	-3	-15%	0.6%	-1%
COc1ccc(S(=O)(=O)NC(C)C(=O)Nc2ccccc2)cc1Cl (stereo not given)	.	-5%	-0.7%	-2%
CCc1ccc(NC(=O)[C@H](C)NC(=O)C2CCN(C(=O)[C@@H](N)C(C)C)CC2)cc1	.	-15%	1.1%	-1%
COc1ccc(CN2CCNC(=O)C2CC(=O)N2CCCCO2)c(OC)c1 (stereo not given)	-25	11%	-2.0%	-2%
COCC(=O)Nc1nc2ccc(S(C)(=O)=O)cc2s1	-7	2%	2.1%	-31%
CCOc1cc(/C=N/NC(=O)Cc2ccc(C(F)(F)F)cc2[N+](=O)[O-])ccc1O	-10	-18%	-11%	-8%
Cc1nnsc1C(=O)N/N=C/c1ccccc1	2	28%	-2.7%	-7%
CCN=C(NCC)SC1CC(=O)N(c2ccccc2)C1=O (stereo not given)	1	16%	-2.1%	-5%
O=C(N/N=C/c1ccc(O)cc1)/C(=C/c1ccccc1)CCO	-16	18%	5.6%	-13%
Cc1[nH]n(-c2ccccc2)c(=O)c1N=Nc1cccc([N+](=O)[O-])c1	.	2%	0.0%	-4%
Cc1cccc(C(C)C)c1NC(=O)C(C)OC(=O)Cc1n[nH]c(=O)c2ccccc12 (stereo not given)	.	-10%	0.5%	.
C=CCOn1c(=O)c(-c2ccc(OCC)cc2)[n+]([O-])c2ccccc21	.	-16%	-0.8%	-25%
CCc1ccc(NC(=O)c2sc3nc(C)nc(N4CCN(c5ccccn5)CC4)c3c2C)cc1	.	5%	-0.8%	7%
COC(=O)c1c(NC(=O)CN2C(=O)c3ccccc3C2=O)sc(Cc2ccc3c(c2)OCO3)c1C	-7	-22%	1.1%	-5%
COC(=O)c1ccsc1NC(=O)c1ccco1	.	-14%	5.0%	-4%
Cc1ccc(C(C)NC(=O)c2ccco2)cc1 (stereo not given)	-14	-10%	0.2%	-2%
COc1ccc2[nH]cc(C(O)CN3CCN(c4ccccc4)CC3)c2c1 (stereo not given)	1	.	.	-1%
O=C(c1cccs1)c1coc2ccc(O)cc12	-4	0%	4.7%	-48%
C/C=C/Cn1c(N(C)Cc2ccccc2)nc2c1c(=O)[nH]c(=O)n2C	5	-11%	4.3%	-24%
O=C1N2c3ccccc3CCc3cccc(c32)C1(O)C(F)(F)F (stereo not given)	2	-13%	0.1%	1%
O=c1[nH]ncc(N/N=C\c2cccnc2)c1Cl	-4	6%	-0.9%	4%
COc1cc(NC(=O)c2cc([N+](=O)[O-])ccc2NC(=O)CNC2CCCCC2C)cc(OC)c1 (stereo not given)	.	3%	5.9%	19%
O=C(CO/N=C/c1ccccc1OC(F)F)NC1CCCC1	-13	2%	0.2%	0%
O=C(CNC(=S)NC(=O)c1cccs1)c1ccccc1	-6	-14%	0.9%	-55%
CC(C)CN(CC(C)C)S(=O)(=O)N1CCC(C(=O)NCCN2CCOCC2)CC1	-1	-5%	3.2%	2%
O=C(CN1CCN(c2ccccc2F)CC1)c1ccc2cc[nH]c2c1	8	1%	-1.2%	-21%
N#CCc1nc(CSc2nc3ccccc3o2)cs1	2	-3%	-3.4%	-43%
CCCOc1c(Br)cc(C(=O)OCC(=O)NC(=O)c2cccn2C)cc1OC	.	-23%	0.1%	.
CCOc1ccc(-c2nnn(CCC#N)n2)cc1OC	10	-4%	-0.1%	-1%
COCCN1CCN(C(=O)c2cc(COc3cc(C)ccc3C)on2)CC1	.	-2%	1.0%	-60%
O=C(CCc1c[nH]c2ccccc12)NCC1COc2ccccc2O1 (stereo not given)	3	1%	-1.8%	-3%
COc1ccc(C(C(=O)NC2CCCCC2)N(CC2CCCO2)C(=O)CCCC(=O)Nc2ccccn2)cc1 (stereo not given)	.	13%	-0.8%	0%
O=C(Nc1ccc(Cl)cn1)c1ccc2c(Cl)c3c(nc2c1)CCC3	7	24%	-0.6%	-64%
CCOCCn1ccc2c(OCC(=O)NCCc3ccc(OC)c(OC)c3)cccc2c1=O	.	1%	0.7%	.
O=C(Nc1cccnc1)Nc1ccc(Cl)cc1Cl	1	6%	2.6%	-20%
CSc1ccccc1C(=O)C1CCCN(C(=O)c2cc(C(C)C)no2)C1 (stereo not given)	-7	?	-1.5%	-1%
CN(Cc1ccccc1)C(=O)COC(=O)Cn1cnc2ccccc21	-1	-14%	4.4%	-1%
COc1ccc(OCC(=O)Nc2c3c(nn2C(C)(C)C)CS(=O)(=O)C3)cc1	.	-12%	-1.6%	-6%
Cc1c(Nc2nc(-c3ccc(Cl)cc3)cs2)c(=O)n(-c2ccccc2)n1C	?	1%	0.2%	-3%
C=C1C(=O)OC2C1CCC(C)=C1C(=O)C3OC3(C)C12 (stereo not given)	.	-1%	0.6%	.
O=C(CCn1cnnn1)Nc1ccc(Cl)cc1Cl	5	2%	0.4%	-2%
CCOC(=O)c1sc(S(C)=O)c2c1CCc1conc1-2 (stereo not given)	0	0%	6.6%	6%

Going on with the list:
SMILES	GLA inh pH 4.5	Rango release inh	Rango complex inh	miR-21 FLuc
O=C(Cc1ccsc1)Nc1cc(F)ccc1F	.	1%	-1.2%	-11%
O=C(c1ccccc1Cl)N1CCN(c2ccccn2)CC1	-4	-4%	2.4%	-6%
Cn1c(CNc2ccc(Cl)cc2)nnc1SCc1ccccc1	-1	-1%	1.4%	-1%
CSCCC(NS(=O)(=O)c1ccccc1)C(=O)OCc1cc(=O)oc2cc(O)ccc12 (stereo not given)	.	?	?	.
Nc1nc(-c2ccccc2)c(CCCOc2ccc([N+](=O)[O-])cc2)c(=O)[nH]1	.	16%	-0.5%	.
Cc1ccc(N2C(=O)C(Cl)=C(NCCO)C2=O)c(C)c1	4	-2%	?	9%
COc1ccc(NC(=S)NC(=O)Cc2ccccc2)cc1	.	0%	-0.2%	-50%
COc1ccc(-c2csc(NC(=O)CSCc3c(C)noc3C)n2)cc1OC	.	1%	2.7%	9%
O=C(CSc1nnc(SCc2ccccc2)s1)N/N=C/c1c[nH]c2ccccc12	1	3%	-2.1%	4%
COc1ccc(N2CCN(C(CNS(=O)(=O)c3cc(F)ccc3F)c3cccnc3)CC2)cc1 (stereo not given)	-9	-13%	-0.8%	1%
CCOc1ccc(-n2c(=O)c3c4c(sc3n(CC(=O)NCC3CCCO3)c2=O)CCC4)cc1 (stereo not given)	3	?	1.4%	0%
COc1ccc(OC)c(NC(=S)NCc2ccc(S(N)(=O)=O)cc2)c1	3	3%	3.0%	0%
Nc1ccc(Cc2nc3cc4ccccc4cc3[nH]2)cc1	0	12%	-0.5%	-8%
Cc1cc(C)n2cc(CSc3nnnn3-c3ccccc3C)nc2n1	4	-6%	0.0%	-2%
Nc1cc2c(cc1Br)-c1ccc(F)cc1C2=O	.	-3%	-2.1%	.

A different layout for some results above.
Molecule,GLA inh pH 4.5,Rango release inh,Rango complex inh,miR-21 FLuc
COc1ccc(NC(=S)NC(=O)Cc2ccccc2)cc1,.,0%,-0.2%,-50%
COc1ccc(-c2csc(NC(=O)CSCc3c(C)noc3C)n2)cc1OC,.,1%,2.7%,9%
O=C(CSc1nnc(SCc2ccccc2)s1)N/N=C/c1c[nH]c2ccccc12,1,3%,-2.1%,4%
COc1ccc(N2CCN(C(CNS(=O)(=O)c3cc(F)ccc3F)c3cccnc3)CC2)cc1 (stereo not given),-9,-13%,-0.8%,1%

A second format for some results above:
Order of values: GLA inh pH 4.5, Rango release inh, Rango complex inh, miR-21 FLuc
> O=C(NCc1ccccc1)C1Cc2ccccc2CN1C(=O)c1ccco1 (stereo not given)
  -8, -2%, 0.0%, 4%
> Cc1ccc(Nc2nc(CSc3nnc(-c4ccccc4C)n3C)cs2)cc1
  -9, 1%, 4.1%, -5%

Further structures:
SMILES	GLA inh pH 4.5	Rango release inh	Rango complex inh	miR-21 FLuc
Cc1ccnc2nc(C(=O)OCC(=O)NCCc3ccccc3)nn12	4	-21%	0.2%	-2%
O=C1CCCN1CCCN1C(=O)N[C@@H](Cc2ccccc2)C1=O	5	22%	6.1%	0%
Cc1cccc(-n2c(O)c(C=Nc3ccccc3-c3n[nH]c(=S)[nH]c3=O)c3ccccc3c2=O)n1	-10	?	?	-1%
CCc1cc2c(NC3CCCC3)ncnc2s1	-2	-12%	-0.3%	17%
Cc1cc(NS(=O)(=O)c2ccc(NC(=O)CSc3nnc(-c4ccco4)n3C)cc2)nc(C)n1	-8	-7%	?	6%
CCOc1cccc2sc(N(CCCN(C)C)C(=O)c3ccc(S(=O)(=O)N4CCc5ccccc5C4)cc3)nc12	.	-10%	1.4%	2%
Cc1ccc(S(=O)(=O)N(C)c2ccc(OCC(=O)OCc3nnc(-c4ccccc4)o3)cc2)cc1	.	2%	2.0%	.
CCOC(=O)Cc1csc(/N=C/c2c(O)n(-c3ccc(C)c(C)c3)c(=O)c3ccccc23)n1	-1	?	?	-2%
COc1ccc2oc(=O)cc(-c3cc4cccc(OC)c4o3)c2c1	.	-12%	12%	2%
CCC1(CC)C(=O)C(C)(C)C(=O)OC1c1cccs1 (stereo not given)	-4	2%	-0.1%	0%
CCn1c(SCC(=O)NCCOc2ccccc2)nc2ccccc2c1=O	-9	-4%	-3.4%	-1%
N#C/C(=C(/O)CN1C(=O)c2ccccc2C1=O)c1nc2ccccc2[nH]1	0	-6%	3.8%	1%
COc1ccc(CCNc2ncnc3nc[nH]c23)cc1OC	3	1%	0.4%	5%
COc1ccc(CCNC(=O)c2coc3ccccc3c2=O)cc1	.	1%	0.8%	12%
CCOC(=O)c1cc(NC(=O)/C=C\C(=O)O)ccc1Cl	0	-3%	3.3%	-2%
CN(C)c1cccc(C(=O)N(Cc2ccccc2)Cc2ccccc2)c1	.	13%	0.1%	10%
